High-throughput results deposited in PubChem BioAssay by National Center for Advancing Translational Sciences (NCATS).
Methyltransferases: Primary Screen for Target Class Profiling of Small Molecule Inhibitors of Methyltransferases; AID 1745853, 2022; 25,000 compounds, 3.9% hits; calls only at 40 µM; purified enzyme, MTase-Glo SAH luminescence; active compounds read low; active = -50% or lower on at least one of six enzymes; inconclusive = the cases between; inactive = as a rule above -30% on all six;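 note: enzymes were COMT GAMT GNMT HNMT NNMT and PNMT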
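Each enzyme was assayed with SAM and its substrate. SAH formation detected by MTase-Glo luminescence; single-point 40 uM screen[…].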
Calls only; i = inactive; ? = inconclusive; + = active, no number. % is set by controls: 0 for no effect and ±100 for the full control effect. An excerpt; rates above refer to the full screens.

cpd	structure	Methyltransferases
1	CCCn1c(=O)c2ccc(C(=O)NC3CCCC3)cc2n2c(=O)n(C(C)C(=O)c3ccc(C)c(C)c3)nc12 (stereo not given)	i
2	COc1ccc(C)cc1NC(=O)CCC[C@@H]1[C@H]2CCCN3CCC[C@@H](CN1Cc1cccnc1)[C@@H]23	i
3	CCc1cc2c(cc3n2CC(C)(C(=O)NC2CCCCCC2)N(CCN2CCOCC2)C3=O)s1 (stereo not given)	i
4	Cc1noc2c(Nc3ccc(C(N)=O)cc3)cc(-c3ccsc3)nc12	i
5	CC[C@H]1CN(C(C)=O)CC[C@H]1CC(=O)Nc1ccccc1	i
6	COc1ccc2cc3n(c2c1)CC(C)(C(=O)NC1CCCCC1)N(c1ccc(OC)c(OC)c1)C3=O (stereo not given)	i
7	COc1cccc(CNC(=O)Cn2ccc3cc(S(=O)(=O)N4CCCC4)ccc32)c1	i
8	COCCCN1C(=O)c2cc3ccccc3n2CC1(C)C(=O)NC1CCCCC1 (stereo not given)	i
9	Cc1ccc(-c2cn(CC3CCCN(c4cc(C)nc(N)n4)C3)nn2)cc1 (stereo not given)	?
10	Cc1ccc(CN2C(=O)NC3(CCN(C(=O)c4cccc(Cl)c4)C3)C2=O)cc1 (stereo not given)	i
11	C=C1C(=O)O[C@@H]2[C@H]1CC[C@H](C)C(CCC(=O)O)C2(C)O (stereo not given in full)	i
12	CCCCCc1ccc(/C=C/C(=O)Nc2cc(Cl)ccc2C(=O)O)cc1	+
13	Cn1sc(=O)n(Cc2ccccc2)c1=O	i
14	CC1(C(=O)NC2CCCCCC2)Cn2c(cc3ccccc32)C(=O)N1Cc1ccccn1 (stereo not given)	i
15	CN(C)c1ccc(C(=O)NCCCCCC(=O)NO)cc1	?
16	C=CC(C)(O)CC/C=C(\C)C(=O)OC1C(O)C(CO)OC(OC(=O)C23CCC(C)(C)CC2C2=CCC4C5(C)CCC(OC6OC(COC7OCC(OC(C)=O)C(O)C7OC7OC(COC(C)=O)C(O)C(O)C7OC(C)=O)C(O)C(O)C6OC6OCC(O)C(O)C6O)C(C)(C)C5CCC4(C)C2(C)C(O)C3O)C1OC1OCC(OC2OCC(O)C(OC3OCC(O)C(O)C3O)C2O)C(O)C1O (stereo not given)	i
17	CCC(C)NC(=O)Cn1ccc2cc(S(=O)(=O)N3CCCCC3)ccc21 (stereo not given)	i
18	CC(C)NC(=O)c1ccc2c(=O)n(C(C)C)c3nn(CC(=O)Nc4ccccc4F)c(=O)n3c2c1	i
19	O=C(CCc1nnc2n(Cc3ccccc3Cl)c(=O)c3ccccc3n12)NCCCN1CCOCC1	i
20	CCOC(=O)CNC(=O)N1Cc2c(sc3c2CCCC3)-n2cccc2C1c1ccc(CC)cc1 (stereo not given)	i
21	COc1ccc(CCNC(=O)c2cc3n(n2)CC(C)(C(=O)NCc2ccc(F)cc2)N(C)C3=O)cc1OC (stereo not given)	i
22	CC(C)c1cc(C(=O)N[C@@H]2COCC[C@@H]2OCc2cscn2)cs1	i
23	C=C(C)C(=O)OC1[C@@H]2C(=C)C(=O)O[C@@H]2C[C@@H](C)[C@@H]2C=CC(=O)[C@@]12C (stereo not given in full)	i
24	CCCn1c(=O)c2ccc(C(=O)NCC(C)C)cc2n2c(=O)n(Cc3ccccc3Cl)nc12	i
25	CC1CCCCC1NC(=O)C1(C)Cn2c(ccc2-c2ccco2)C(=O)N1Cc1ccc(F)cc1 (stereo not given)	i
26	CC1(C(=O)NC2CCCCCC2)Cn2nc(-c3cccs3)cc2C(=O)N1Cc1ccccc1 (stereo not given)	i
27	CC(C)(C)c1cc(C[C@H]2CNCC[C@H]2CC(=O)NC2CCCCC2)no1	i
28	CCOc1ccccc1CN1C[C@@H](CO)[C@H](NC(=O)c2cccnc2)C1	i
29	CCCn1c(=O)c2ccc(C(=O)NC3CCCC3)cc2n2c(=O)n(Cc3ccccc3C)nc12	i
30	CC1(C(=O)NC2CCCCC2)Cn2nc(-c3cccs3)cc2C(=O)N1CCCc1ccccc1 (stereo not given)	i

Fetched one by one from above (three):
cpd	structure	Methyltransferases
26	CC1(C(=O)NC2CCCCCC2)Cn2nc(-c3cccs3)cc2C(=O)N1Cc1ccccc1 (stereo not given)	i
22	CC(C)c1cc(C(=O)N[C@@H]2COCC[C@@H]2OCc2cscn2)cs1	i
27	CC(C)(C)c1cc(C[C@H]2CNCC[C@H]2CC(=O)NC2CCCCC2)no1	i

Further compounds
cpd	structure	Methyltransferases
31	CC(C)n1ccnc1CN1CCC2(CCCO2)CCC1=O (stereo not given)	i
32	CCc1ccc(N2C(=O)c3c(C(=O)OC)ncn3CC2(C)C(=O)NCCCOC(C)C)cc1 (stereo not given)	i
33	CC1=C2C(=O)C=C(CO)C2[C@H]2OC(=O)[C@H](C)[C@@H]2[C@@H](OC(=O)Cc2ccc(O)cc2)C1 (stereo not given in full)	i
34	COc1ccc2cc3n(c2c1)CC(C)(C(=O)NC1CCCC1)N(Cc1ccccc1C)C3=O (stereo not given)	i
35	Cc1ccc(Nc2ccn3c(=O)n(CC(=O)Nc4ccc(F)c(F)c4)nc3n2)cc1	i
36	CNc1nc(C(=O)N2CCC(c3nccn3Cc3ccncc3)CC2)cs1	i
37	COc1ccc2cc3n(c2c1)CC(C)(C(=O)NCC1CCCO1)N(Cc1ccc(F)cc1)C3=O (stereo not given)	i
38	CCN(CC)C(=O)c1csc(-c2cccc(OC(C)C)c2)n1	i
39	Nc1nc2c(ncn2C2OC3COP(=O)(O)OC3C2O)c(=O)[nH]1 (stereo not given)	i
40	COc1ccc(C(=O)O[C@H]2CC(C)=CC[C@@]3(C)[C@@H](OC(C)=O)C[C@@](O)(C(C)C)[C@H]23)cc1	i

An excerpt from above in order of count of non-hydrogen atoms, falling:
cpd	structure	Methyltransferases
25	CC1CCCCC1NC(=O)C1(C)Cn2c(ccc2-c2ccco2)C(=O)N1Cc1ccc(F)cc1 (stereo not given)	i
26	CC1(C(=O)NC2CCCCCC2)Cn2nc(-c3cccs3)cc2C(=O)N1Cc1ccccc1 (stereo not given)	i
33	CC1=C2C(=O)C=C(CO)C2[C@H]2OC(=O)[C@H](C)[C@@H]2[C@@H](OC(=O)Cc2ccc(O)cc2)C1 (stereo not given in full)	i
28	CCOc1ccccc1CN1C[C@@H](CO)[C@H](NC(=O)c2cccnc2)C1	i
22	CC(C)c1cc(C(=O)N[C@@H]2COCC[C@@H]2OCc2cscn2)cs1	i

Other entries
cpd	structure	Methyltransferases
41	CC(C)NC(=O)c1ccc2c(=O)n(Cc3ccccc3)c3nn(Cc4ccc(Cl)cc4)c(=O)n3c2c1	i
42	C[C@]1(O)CCN(C(=O)c2ccc3c(c2)OCC(=O)N3)C[C@@H]1O	i
43	OC[C@H]1O[C@@H](Oc2ccc(O)c3cccc(O)c23)[C@H](O)[C@@H](O)[C@@H]1O	+
44	CCOc1ccc(C(Nc2ccccn2)c2ccc3ccc(C)nc3c2O)cc1C (stereo not given)	?
45	CC1(C(=O)NC2CCCCCC2)Cn2c(cc3sccc32)C(=O)N1Cc1ccco1 (stereo not given)	i
46	CCCCS(=O)(=O)N1CCC(c2nnc(Cn3cncn3)n2C)CC1	i
47	CCN(CC)C(=O)CC1Sc2ncccc2N(CC(C)C)C1=O (stereo not given)	i
48	CN1C(=O)c2cc3ccccc3n2CC1(C)C(=O)NCC(=O)NCc1ccccc1 (stereo not given)	i
49	CCOc1ccc(C(=O)Cn2nc3n(Cc4ccc(F)cc4)c(=O)c4ccccc4n3c2=O)cc1	i
50	CCCNC(=O)C(C)n1ccc2cc(S(=O)(=O)N3CCCC3)ccc21 (stereo not given)	i
51	CCCCCc1ccc(/C=C/[C@H](O)[C@@H](CO)NC)cc1	?
52	Cc1cc(C)n(CCC(=O)N2CCC(Cc3nncn3-c3ccccc3)CC2)n1	i
53	CCC1c2ccc(C)n2CCN1C(=O)Nc1cc(OC)cc(OC)c1 (stereo not given)	i
54	CCCN1C(=O)c2c(C(=O)NCc3ccc(OCC)cc3)ncn2CC1(C)C(=O)NCCC(C)C (stereo not given)	i
55	O=S(=O)(Nc1ccc(C(O)(C(F)(F)F)C(F)(F)F)cc1)c1cccs1	i
56	O=c1c2ccccc2n2c(SCc3cccc(F)c3)nnc2n1Cc1ccccc1	i
57	COc1ccc(C(=O)Cn2nc3n(C)c(=O)c4ccc(C(=O)NC5CCCCC5)cc4n3c2=O)cc1	i
58	Cc1ccc(CNC(=O)c2cc3n(n2)CC(C)(C(=O)NCc2ccccc2)N(C)C3=O)cc1 (stereo not given)	i
59	Cc1ccccc1NC(=O)Cn1nc2n(C(C)C)c(=O)c3ccc(C(=O)NCC(C)C)cc3n2c1=O	i
60	Cc1ccc(Cn2c(=O)c3ccccc3n3c(=O)n(Cc4ccccc4C)nc23)cc1	i
61	Cc1ccc(NC(=O)CSc2nnc3n(CC(C)C)c(=O)c4ccc(Cl)cc4n23)c(Cl)c1	i
62	O=C(Cn1nc2n(CCc3ccccc3)c(=O)c3ccccc3n2c1=O)Nc1ccc2c(c1)OCO2	i
63	CCC1=C(C)CN(C(=O)NCCc2ccc(S(=O)(=O)NC(=O)NC3CCC(C)CC3)cc2)C1=O (stereo not given)	i
64	Cc1ccc(Cn2c(=O)c3ccccc3n3c(=O)n(CC(=O)c4ccc(C)cc4C)nc23)cc1	i
65	Cc1cc(N2CCN(Cc3nnc(C4CC(N)C4)n3C)CC2)cc(C)n1 (stereo not given)	i
66	CCCCCC(=O)Nc1ccc([C@H]2OCC(=O)N(Cc3nccn3C)[C@@H]2CO)cc1	i
67	CC(=O)c1c(C)nn(CC(=O)NC(C)c2cnn(-c3ccccc3C)c2C)c1C (stereo not given)	i
68	C=CCn1c(=O)c2ccc(C(=O)NC(C)C)cc2n2c(=O)n(CC(=O)Nc3cccc(F)c3)nc12	i
69	Cn1c(=O)c2ccc(C(=O)NC3CCCCC3)cc2n2c(=O)n(CC(=O)NCc3ccccc3)nc12	i
70	COc1ccccc1OCCNCC(O)CCOc1cccc2[nH]c3ccccc3c12 (stereo not given)	+
71	CN1C(=O)c2cc(C(=O)NCc3ccccc3F)nn2CC1(C)C(=O)NCc1ccc(F)cc1 (stereo not given)	i
72	CCC1c2ccc(C)n2CCN1C(=O)Nc1ccccc1C (stereo not given)	i
73	CCCn1c(=O)c2ccc(C(=O)NCC(C)C)cc2n2c(=O)n(CC(=O)NC3CCCC3)nc12	i
74	Cc1c(CC(=O)N(C)C(C)C)c2c(n1Cc1ccccc1F)CCCC2=O	i
75	Cc1ccc(C)c(C(=O)Cn2nc3n(CC(C)C)c(=O)c4ccc(C(=O)NC5CCCC5)cc4n3c2=O)c1	i
76	CC1CCCCC1NC(=O)C1(C)Cn2c(nc3ccccc32)C(=O)N1Cc1ccc(F)cc1 (stereo not given)	i
77	CCn1cnnc1CC1CCN(C(=O)c2[nH]nc3c2COc2ccccc2-3)CC1	?
78	COCc1nnc2n1CCC(NC(=O)C1CC=CC1)CC2 (stereo not given)	i
79	C=CC(C)(O)CC[C@H]1C(=C)CCC2[C@](C)(C(=O)O)CCC[C@@]21C (stereo not given in full)	i
80	CCOCCCNC(=O)c1cc2n(n1)CC(C)(C(=O)NC1CCCCC1)N(C)C2=O (stereo not given)	i
81	CC(C)CNC(=O)c1ccc2c(=O)n(C(C)C)c3nn(C)c(=O)n3c2c1	i
82	CCOC(=O)Nc1cc(-c2ccc(C)c(NS(C)(=O)=O)c2)nn2c(C)nnc12	?
83	C[C@@H](NCCc1ccc(O)cc1)[C@@H](O)c1ccc(O)cc1	?
84	CCCc1nc(C(=O)N2CCC3(CCCNC3)C2)cs1 (stereo not given)	?
85	Cc1cc(OCCCS(C)(=O)=O)cc(C)c1-c1cccc(COc2ccc(C3=CC(=O)NS3=O)cc2)c1 (stereo not given)	?
86	Cc1ccc(Cn2c(=O)c3ccc(C(=O)NC(C)C)cc3n3c(=O)n(Cc4ccc(F)cc4)nc23)cc1	i
87	C=C1[C@@H]2CC[C@@]3(C)[C@H](c4ccoc4)OC(=O)C[C@]13O[C@H]1CC(=O)C(C)(C)[C@H](CC(=O)OC)[C@]12C	i
88	O=C(c1ccc(C2CCCNC2)cc1)N1CCC(Oc2cccc(F)c2)CC1 (stereo not given)	i
89	CC1CCN(c2cc(NC(=O)c3ccccc3)ncn2)CC1	i
90	CC(C)CC(=O)O[C@@H]1OC=C(CO[C@@H]2O[C@H](CO)[C@@H](O)[C@H](O)[C@H]2O)[C@H]2[C@@H]3O[C@H]3[C@@](O)(CO)[C@@H]12	i

Additional structures follow:
cpd	structure	Methyltransferases
91	COc1ccc(-c2cc3n(n2)CC(C)(C(=O)NC2CCCCC2)N(Cc2ccc(C)cc2)C3=O)cc1 (stereo not given)	i
92	CCOc1ccccc1CNC(=O)c1cc2n(n1)CC(C)(C(=O)NCCC(C)C)N(C)C2=O (stereo not given)	i
93	CCCn1c(=O)c2ccc(C(=O)NC(C)C)cc2n2c(=O)n(Cc3cccc(OC)c3)nc12	i
94	CCCN1C(=O)c2c(C(=O)NCc3ccccc3Cl)ncn2CC1(C)C(=O)NCc1ccc(OC)cc1 (stereo not given)	i
95	O=C(C1CC1)N1C[C@@H]2OCC(=O)N(Cc3ccc(F)cc3)[C@@H]2C1	i
96	COc1cccc(CSc2nnc3n(C)c(=O)c4ccc(C(=O)NC5CCCC5)cc4n23)c1	i
97	COc1cc2c(cc1NS(=O)(=O)c1ccc3c(c1)n(C)c(=O)n3C)n(C)c(=O)n2C	i
98	CC1CCCCC1NC(=O)C1(C)Cn2c(nc3ccccc32)C(=O)N1Cc1ccc2c(c1)OCO2 (stereo not given)	i
99	Cc1ccc2c(c1)C(=O)[C@]1(O)CCN(c3ccccc3)C1=N2	i
100	O=C(NCC1CN(C(=O)Cc2ccc(C(F)(F)F)cc2)CC12CN(c1ccccc1)C2)c1ccccc1 (stereo not given)	i
101	COC(=O)CCc1ccc(OCC(O)CNC(C)C)cc1 (stereo not given)	i
102	Cc1nn(-c2ccccc2)c(C)c1/C=N/N1CCN(Cc2ccccc2)CC1	i
103	CCn1cnnc1CC1CCN(C(=O)C2CCCN(S(=O)(=O)c3ccc4c(c3)oc(=O)n4C)C2)CC1 (stereo not given)	i
